HIV TAR-Tat: HIV-1 TAR-Tat binding disruption; HIV-1 TAR RNA, Tat peptide displacement FRET; stronger effect = higher value; z-score (no concentration beside the values); hit rate 0.6% among 100,000; AID 1259389;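 also: score is relative to mean and SD of negative controls; some compounds called inactive have numbers as strong as hits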
CDC25B-CDK2 inh: human CDC25B-CDK2/CyclinA binding inhibition; HTRF CDC25B-CDK2/CyclinA binding, anti-His/anti-Flag; stronger effect = higher value; z-score (concentration not given with the values); hit rate 0.72% among 94,000; AID 1259370;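 also: score is relative to mean and SD of negative controls; strong numbers were not always called active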
* = called active by the depositor; · = not tested or not shown.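 The calls were made as follows: active = z-score from 3 up in half or more of its runs; inactive = the rest.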

Below each compound: HIV TAR-Tat	CDC25B-CDK2 inh
C=CCn1cc(C(=O)NCc2ccc3c(c2)OCO3)c(=O)c2cc(S(=O)(=O)N(CC)CC)ccc21
→ -0.64	-2.14
CC(=O)c1cc(-n2nc3ccccc3n2)c(O)c(-n2nc3ccccc3n2)c1O
→ ·	-1.9
COc1ccccc1-c1nnc2sc(COc3ccc(F)cc3)nn12
→ 2.21	0.89
Cc1ccc(C(=O)C2C(c3cccs3)NC(=O)NC2(O)C(F)(F)F)cc1 (stereo not drawn)
→ ·	1.3
COC(=O)C1=C(C)Nc2nnnn2C1c1ccc(Cl)cc1 (stereo not drawn)
→ 2.8	-1.16
COc1ccc(/C=N/c2nc3ccccc3[nH]2)cc1
→ ·	-2.35
O=C(NCC1CCCO1)c1c(NC(=O)c2nn(-c3ccc(F)cc3)ccc2=O)sc2c1CCCC2 (stereo not drawn)
→ 1.26	0.12
Cc1cc(C)n(-c2nc3ccccc3nc2N2CCN(S(=O)(=O)c3ccc(F)c(C)c3)CC2)n1
→ 2.2	-1.93
Cc1ccc(S(=O)(=O)Nc2cc(Sc3nc4ccccc4s3)c(O)c3ccccc23)cc1
→ ·	0.29
COC(=O)c1ccc(Oc2nc(N(C)C)nc(N(C)C)n2)cc1
→ -1.28	0.23
CN(CCCNC(=O)CCc1cn(C)c2ccccc12)C1CCCCC1
→ 2.39	·
Cc1onc(C(=O)NC2CCCCC2)c1CN1CCOCC1
→ 0	·
CC(=O)N1CC(C)Oc2ccc(S(=O)(=O)Nc3ccc(Cl)cc3F)cc21 (stereo not drawn)
→ 0.57	·
CCOC(=O)C(Cc1c[nH]c2ccccc12)NS(=O)(=O)c1ccc(Cl)cc1 (stereo not drawn)
→ 0.33	-2.44
COc1ccc(S(=O)(=O)Nc2ccc(N3CCCS3(=O)=O)cc2)cc1F
→ 1.22	·
O=C(c1c[nH]c2ccc(S(=O)(=O)Nc3ccc4c(c3)OCCO4)cc2c1=O)N1CCCCCC1
→ ·	-0.96
Cc1ccc(C)c(Nc2c(-c3ccc4c(c3)CCCC4)c(=O)c2=O)c1
→ 0.91	·
Cc1ccc(S(=O)(=O)[C@H]2CS(=O)(=O)C[C@@H]2NCc2ccc(Cl)cc2)cc1
→ 1.91	-0.11
CC(C)C1c2cccn2CCN1C(=O)Nc1cccc(F)c1 (stereo not drawn)
→ 0.89	·
Cc1ccc(C2C3=C(CCCC3=O)Nc3[nH]c(=S)[nH]c(=O)c32)cc1 (stereo not drawn)
→ ·	-1.35

More records.
Below each compound: HIV TAR-Tat	CDC25B-CDK2 inh
O=C(CCCCn1c(=O)[nH]c2ccsc2c1=O)NCCC1=CCCCC1
→ -1.52	-2.98
CCc1cccc(C)c1Nc1c(-c2ccc(C)c(C)c2)c(=O)c1=O
→ 0.41	·
Cc1cc(-c2ccc(S(=O)(=O)N3CCN(c4ccccc4)CC3)s2)n[nH]1
→ 1.14	·
Cc1ccc(C(O)(Cc2ccccc2)C(CN2CCOCC2)c2ccccc2)cc1 (stereo not drawn)
→ -2.23	-0.44
CC1CCN(C(=O)CN2C(=O)N(c3cc(F)ccc3F)S(=O)(=O)c3ccccc32)CC1
→ 1.61	·
COCCNC(=O)N1CCc2cc(S(=O)(=O)N3CCC(C)CC3)ccc21
→ 0.23	·
COc1ccc(C2=NN(CC(=O)NCCN3CCOCC3)C(=O)CC2)cc1
→ ·	-0.49
CC(C)Cn1cc(NC(=O)N2CCN(c3cccc(Cl)c3)CC2)c2ccccc2c1=O
→ 1.61	·
CN1C(C(=O)Nc2cccnc2)=CC(c2ccc(F)cc2)=NS1(=O)=O
→ 2.33	-0.66
CSc1ccc(CNC(=O)CN2C(=O)C(C)=C(c3ccc(C(C)C)cc3)S2(=O)=O)cc1
→ 1.19	·
Nc1ncnc2nc(SCc3nc4ccccc4[nH]3)[nH]c12
→ 2.44	-1.18
Cn1cccc1Cc1nnc(SCC(=O)N2CCc3ccccc32)n1CCc1ccccc1
→ 0.7	-0.69
N#Cc1c(NC(=O)CSc2nc3c(c(=O)[nH]2)CCC3)sc2c1CCCC2
→ 1.33	-1.75
COc1ccc(C(=O)CSc2nc3nc(C)cc(C)c3c(=O)[nH]2)cc1
→ -0.9	-0.48
O=C(Nc1ccccc1SCc1cc(=O)n2c3c(sc2n1)CCCC3)c1cccs1
→ 0.13	·
Cc1[nH]c(C)c(S(=O)(=O)N2CCOCC2)c1C(=O)N1CCCCC1
→ 0.57	·
CC(=O)Nc1cc2cc(-n3cccc3)ccc2oc1=O
→ ·	-1.1
CCCCn1c(=O)c(C2=NS(=O)(=O)c3ccccc3N2)c(O)c2ccccc21
→ ·	-2.36
CCCN1C(=O)C2(/C(=C(/O)c3ccc(OC)cc3)C(=O)C(=O)N2CCOC)c2ccccc21 (stereo not drawn)
→ 0.83	-0.61
COc1ncc(C(=O)NNC(=O)c2ccno2)cc1[N+](=O)[O-]
→ ·	-5.45

More compounds
Below each compound: HIV TAR-Tat	CDC25B-CDK2 inh
O=C1Nc2ccccc2C12OCCO2
→ ·	-0.91
CCc1cc(C(=O)OC)c(NC(=O)CCCC(=O)O)s1
→ 1.21	-0.6
CCN(CC)S(=O)(=O)c1ccc2c(c1)CC(C(=O)N1CCC(C)CC1)N2C(C)=O (stereo not drawn)
→ 7.69	·
CN(CC1CCCO1)C1CCN(C(=O)Cn2c(=O)oc3ccccc32)CC1 (stereo not drawn)
→ -0.51	-0.61
CC(=O)n1nc(N)c([N+](=O)[O-])c1N
→ 0.87	-0.05
COc1ccc(OCc2nc3c4c5c(sc4ncn3n2)CCCCC5)cc1
→ 3.44	-1.79
COc1ccc(/C=N/Nc2c([N+](=O)[O-])c(C)nn2C)cc1
→ ·	-2.12
O=c1c(Cl)c(O)c2ccccc2n1Cc1ccccc1
→ ·	-0.91
Cc1ccc(C2=NN3C(C2)c2ccccc2OC3c2ccc(F)cc2)o1 (stereo not drawn)
→ 1.42	-1.67
O=C(Nc1ccc2oc(-c3c(F)c(F)c(F)c(F)c3F)nc2c1)c1ccc(F)cc1
→ ·	-4.25
COC(=O)C1=C(C)NC(C)=C(C(=O)OC)C1c1ccccc1
→ ·	-1.35
COc1cccc(C2Nc3ccccc3-n3cc4c(=O)n(C)c(=O)n(C)c4c32)c1O (stereo not drawn)
→ 1.92	-1.56
O=C(O)Cc1csc(-c2cnccn2)n1
→ ·	-1.07
O=C(c1cccs1)N1CCC(n2cccc2)CC1
→ ·	-1.17
Cn1nc(C(=O)N2CCOCC2)c2c1CCN(S(=O)(=O)c1cccc3nsnc13)C2
→ 0.23	·
O=[N+]([O-])c1cc(C(F)(F)F)cc([N+](=O)[O-])c1N1CCSCC1
→ ·	-1.28
CN1C2CCCC1CC(NC(=O)c1nn(C)c3ccccc13)C2 (stereo not drawn)
→ ·	-0.67
COc1ccc(OCCN[C@H]2CS(=O)(=O)C[C@@H]2S(=O)(=O)c2ccc(Cl)cc2)cc1
→ -0.1	-2.7
Cc1nc(-c2ccc(S(=O)(=O)NCCc3ccccc3)cc2)co1
→ 0.06	·
Cc1cc2n(n1)C(c1ccc(O)cc1O)Nc1ccccc1-2 (stereo not drawn)
→ 0.63	-2.69

A second format for some results above.
| Compound | HIV TAR-Tat | CDC25B-CDK2 inh |
| --- | --- | --- |
| O=C(Nc1ccc2oc(-c3c(F)c(F)c(F)c(F)c3F)nc2c1)c1ccc(F)cc1 | · | -4.25 |
| COC(=O)C1=C(C)NC(C)=C(C(=O)OC)C1c1ccccc1 | · | -1.35 |
| COc1cccc(C2Nc3ccccc3-n3cc4c(=O)n(C)c(=O)n(C)c4c32)c1O (stereo not drawn) | 1.92 | -1.56 |
| O=C(O)Cc1csc(-c2cnccn2)n1 | · | -1.07 |

Continuation:
Below each compound: HIV TAR-Tat	CDC25B-CDK2 inh
O=C(Nc1ccc(Br)cc1)N1Cc2cccn2-c2ccccc21
→ 1.59	·
CCOC(=O)N1CCC(N[C@H]2CS(=O)(=O)C[C@@H]2S(=O)(=O)c2ccc(F)cc2)CC1
→ 1.75	0.28
CC1CCCC(NC(=O)C2(C)Cn3c(cc4occc43)C(=O)N2C2CCCC2)C1C (stereo not drawn)
→ 0.67	·
Cc1c(C)n(-c2ccc(F)cc2)c2ncn3nc(-c4ccc(N(C)C)cc4)nc3c12
→ 0.73	0.14
Cc1nc2ccccc2n1CCc1nc2c3ccccc3nc(NCCN3CCOCC3)n2n1
→ 0.34	-1.79
COc1ccc(S(=O)(=O)N(CCS(=O)(=O)N2CCNCC2)C(C)C)cc1
→ 0.47	·
CC1(O)Cc2[nH][nH]c(=O)c2C(c2cccc(Br)c2)C1C(=O)OCc1ccccc1 (stereo not drawn)
→ 0.07	-1.58
COC(=O)C[C@@H]1C2(C)C(=O)[C@@H](CC3=C4CC(O)O[C@@H](c5ccoc5)[C@]4(C)CCC32)[C@H](O)C1(C)C (stereo partly drawn)
→ -0.15	·
Oc1ccc2ccccc2c1/C=N/Nc1cc(-c2ccccc2)nc(-c2ccc(Br)cc2)n1
→ ·	-0.62
CCc1nn2c(=O)cc(CSc3nnc(NC(=O)C(CC)CC)s3)nc2s1
→ 0.11	·
Cc1ccc(-c2nc3sc(CCNS(=O)(=O)c4c(C)cc(C)cc4C)c(C)n3n2)cc1
→ 1.28	·
OC(CNCCNc1ccc(C(F)(F)F)cn1)CSc1ccc(F)cc1 (stereo not drawn)
→ ·	-0.79
Cc1noc2ncnc(N3CCC(C(=O)N4CCC(C)CC4)CC3)c12
→ 1.34	·
COc1cc(-c2nc3scc(-c4ccccc4)c3c(=O)o2)cc(OC)c1OC
→ ·	-0.79
O=C(CCC1CCCCC1)Nc1nc2ccc(S(=O)(=O)N3CCOCC3)cc2s1
→ 1.66	·
CN(C(=O)Cc1c(C(=O)O)n(C)c2ccccc12)c1cccc(Cl)c1
→ ·	0.21
O=C(O)COc1ccc(-c2nc3ccccc3s2)cc1
→ 11.8	0.09
Cc1ccc(-c2onc(C)c2C)cc1S(=O)(=O)Nc1ccccn1
→ 2.14	·
Cn1c(SCC(=O)c2ccc(Cl)cc2)nnc1-c1ccncc1
→ ·	1.98
O=C(CN1C(=O)CSc2ccc(S(=O)(=O)N3CCOCC3)cc21)NCCCN1CCCC1=O
→ 0.41	·

Next section.
Below each compound: HIV TAR-Tat	CDC25B-CDK2 inh
c1ccc(CC2CCN(c3nn4nnnc4c4ccccc34)CC2)cc1
→ -1.01	·
Cc1ccc2scc(N3CCCCC3)c(=O)c2c1
→ -0.54	·
CCC1(C)Cc2ccccc2C(NC(=O)N2CCCC2)=C1C#N (stereo not drawn)
→ 1.38	-1.37
Cc1cccc(C2NCCN=C2NC2CCCCC2)c1 (stereo not drawn)
→ -0.87	·
O=S(=O)(CCCCCS(=O)(=O)c1ccccc1)c1ccccc1
→ ·	-1.16
CN(C(=O)c1cc2c(s1)-c1ccccc1OC2)c1ccc(Br)cc1
→ -0.53	0.43
CC1=C(C(=O)Nc2ccc3c(c2)OCCO3)C2(CCN(C(C)C)CC2)OC1=O
→ 0.34	·
O=C(NC1CCCC1)c1ccc(CS(=O)c2ccccc2)o1 (stereo not drawn)
→ 0.37	-0.13
COc1ccc(N2CCN(CC(O)c3ccc4c(c3)CCN4)CC2)cc1 (stereo not drawn)
→ 2.37	-1.11
C=CCNc1nc(NCc2cccc(C)c2)c2cnn(C)c2n1
→ 1.41	·
O=C(Nc1ccc2oc(-c3ccc4ccccc4c3)nc2c1)c1ccc(Br)o1
→ ·	-3.58
O=C(NCc1cccs1)C1CC(c2c(F)cccc2Cl)=NO1 (stereo not drawn)
→ 1.6	-1.14
COc1ccccc1-c1nn2cnnc2s1
→ -1.3	-0.5
CC(=O)N1c2ccc(S(=O)(=O)N3CCCC3)cc2CC1C(=O)NCc1c(C)nn(C)c1C (stereo not drawn)
→ 2.09	·
Cc1cc(C)c2c(=O)cc(CN(C)Cc3ccc(Cl)cc3)[nH]c2c1
→ -0.94	·
COC(=O)c1ccc(CSc2nc3cccnc3n2Cc2ccccc2)cc1
→ 1.1	0.29
COC(=O)c1cc(-c2ccc(S(=O)(=O)NCc3ccc(Cl)cc3)s2)on1
→ 0.89	·
Cc1cccc(C2CCCN2S(=O)(=O)c2cnc[nH]2)c1 (stereo not drawn)
→ -0.89	-2.91
CCS(=O)(=O)c1ncc(Cl)c(C(=O)Nc2sc3c(c2C(=O)OC)CCCC3)n1
→ 1.34	-0.01
Cc1cc(-c2nc(-c3ccnn3C(=O)Nc3ccc(Cl)cc3Cl)cs2)no1
→ ·	-1.98

Continued, overlapping the part above by 3 compounds.
Below each compound: HIV TAR-Tat	CDC25B-CDK2 inh
Cc1cccc(C2CCCN2S(=O)(=O)c2cnc[nH]2)c1 (stereo not drawn)
→ -0.89	-2.91
CCS(=O)(=O)c1ncc(Cl)c(C(=O)Nc2sc3c(c2C(=O)OC)CCCC3)n1
→ 1.34	-0.01
Cc1cc(-c2nc(-c3ccnn3C(=O)Nc3ccc(Cl)cc3Cl)cs2)no1
→ ·	-1.98
CC(C)(C)c1csc(Sc2ccc([N+](=O)[O-])cc2[N+](=O)[O-])n1
→ ·	-2.07
O=S1(=O)C[C@H](N2CCN(Cc3ccccc3)CC2)[C@@H](S(=O)(=O)c2ccccc2)C1
→ 0.67	-1.68
CC1(C)CC(=O)C2=C(C1)Nc1ccccc1N(C(=O)C(F)(F)F)C2c1ccc(-c2ccc(Br)cc2)o1 (stereo not drawn)
→ ·	-0.88
CN(C)c1nc(SCCOC(=O)c2ccccc2)nc(N(C)C)n1
→ 0.81	-1.72
COCCNC(=O)CCS(=O)(=O)c1ccc2c(c1)NC(=O)C(C)S2 (stereo not drawn)
→ 1.9	·
CCOc1ccccc1Nc1nc2ccccc2n2nnnc12
→ -3.49	-2.32
COc1ccc(OCCCCN2CCC(C)CC2)cc1
→ 1.09	-0.33
COC(=O)c1sc(SC)c(S(=O)(=O)C(C)C)c1N/N=C(\C#N)C(=O)c1ccccc1
→ ·	-1.97
CCOC(=O)C1CCCN(c2cc(=O)n(C3CCCCC3)c(=O)[nH]2)C1 (stereo not drawn)
→ 0.99	·
O=C(c1ccco1)N1CCN(C(=O)c2cc3c(s2)-c2ccccc2OC3)CC1
→ 0.98	-0.27
COc1ccc(S(=O)(=O)Nc2cc(C)ccn2)cc1
→ -1.95	0.75
